# High-throughput results from PubChem.
# MbtI inh = blocks the Mycobacterium tuberculosis siderophore enzyme MbtI. P9WFX0. inhibition, %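 (about 17 µg/mL by stock and volumes)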. purified MbtI enzyme, fluorescence intensity read-out. 0.89% of 100,000 active;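 active = above 50% in both replicates, above 80% if mildly self-fluorescent; inactive = the rest, strongly fluorescent compounds included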;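 also: 0% = mean of negative and 100% = mean of positive controls; one replicate is shown; some compounds called inactive have numbers as strong as hits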
# MenB inh = inhibitors of Mycobacterium tuberculosis MenB enzyme; P9WNP5; MenB enzyme assay, absorbance read-out; some hits fall short of the stated cut; inhibition, %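 (about 12 µg/mL by stock and volumes)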; 0.43% of 100,000 active;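 active = mean of two replicates above 30%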;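 also: 0% = no compound and 100% = wells with inactive enzyme; the first replicate is given; strong numbers were not always called active; inactives centre near -10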
# Target sequence (P9WNP5 whole entry, looked up): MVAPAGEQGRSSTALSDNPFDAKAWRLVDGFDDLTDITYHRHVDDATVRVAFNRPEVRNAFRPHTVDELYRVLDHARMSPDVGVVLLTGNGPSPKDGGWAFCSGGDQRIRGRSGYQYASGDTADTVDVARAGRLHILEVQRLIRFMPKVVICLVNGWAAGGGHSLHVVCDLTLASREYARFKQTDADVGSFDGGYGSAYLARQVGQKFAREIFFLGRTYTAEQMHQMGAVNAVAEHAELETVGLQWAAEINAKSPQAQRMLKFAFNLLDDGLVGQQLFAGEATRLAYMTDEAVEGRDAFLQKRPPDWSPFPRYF
# Polio RdRp inh = inhibitors of poliovirus RNA polymerase binding and polymerization | 0.66% of 150,000 active | P03300 | % elongation, % (compound at 16.7 µg/mL) | AID 588519 | poliovirus polymerase elongation, fluorescence polarization; active compounds read low; in the data active = % elongation below about 90%; also: some results filed as inactive read as strong as hits
# Target sequence (P03300 1749-2209 limits assumed): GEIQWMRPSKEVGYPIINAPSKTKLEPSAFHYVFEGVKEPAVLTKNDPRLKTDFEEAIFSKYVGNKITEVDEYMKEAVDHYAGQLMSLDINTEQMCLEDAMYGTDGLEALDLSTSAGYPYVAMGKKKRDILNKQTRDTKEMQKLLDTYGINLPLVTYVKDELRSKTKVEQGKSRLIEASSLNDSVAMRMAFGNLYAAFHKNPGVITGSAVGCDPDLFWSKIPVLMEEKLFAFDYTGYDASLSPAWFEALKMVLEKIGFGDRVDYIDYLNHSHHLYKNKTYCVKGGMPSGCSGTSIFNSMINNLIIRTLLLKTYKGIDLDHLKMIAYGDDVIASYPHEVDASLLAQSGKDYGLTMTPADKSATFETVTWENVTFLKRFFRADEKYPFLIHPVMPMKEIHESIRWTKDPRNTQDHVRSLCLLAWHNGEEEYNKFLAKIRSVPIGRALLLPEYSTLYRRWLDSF
# Polio RdRp inh intensity = further read-out of Polio RdRp inh, marked with its call; % elongation; measured here: total intensity read-out; formula for this scale not given here;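 total fluorescence in place of polarization; lower means less elongation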
# An asterisk follows results filed as active; . = not tested or not shown; & = joins results of further samples.
# The line under a structure holds: MbtI inh	MenB inh	Polio RdRp inh	Polio RdRp inh intensity
O=c1c2ccccc2nnn1CSc1nnc2ccccn12
 : -8.6	11.3	107.0	109.0
COC(=O)c1cccc(S(=O)(=O)N2CCOCC2)c1
 : 11.9	27.4	100.0	102.0
O=C(CSCC(=O)Nc1nc(-c2cccs2)cs1)Nc1nccs1
 : 0.8	-16.2	103.0	100.0
Nc1ncnc2c1ncn2CC(O)CO (configuration not stated)
 : -11.3	-4.6	101.0	101.0
CNC(=O)COc1coc(CN2CCN(Cc3ccccc3)CC2)cc1=O
 : 5.8	11.5	101.0	103.0
Nc1ccccc1C(=O)NCC(F)(F)F
 : 107.5	-17.2	106.0	108.0
CS(=O)(=O)N(CC(=O)N1CCCCC1)c1sc2c(c1C#N)CCCC2
 : -0.5	18.9	102.0	101.0
CCOC(=O)c1c(SC)nc2c(C(F)(F)F)cccc2c1N1CCCC1
 : -6.7	-16.0	101.0	103.0
COc1cccc(NC(=O)/C(C#N)=C2\SCC(=O)N2c2ccc(C)cc2)c1
 : 7.3	-71.1	111.0	107.0
CNc1nc(C)c(C(=O)OCC(=O)OC)s1
 : 31.8	-14.5	102.0	102.0

# Additional records
# The line under a structure holds: MbtI inh	MenB inh	Polio RdRp inh	Polio RdRp inh intensity
CC1(C(=O)O)CC(C)(C(=O)O)CC(C)(C(=O)O)C1 (configuration not stated)
 : -10.6	-23.2	104.0	98.0
CSc1ncccc1C(=O)OC1CCOC1=O (configuration not stated)
 : 2.7	7.9	106.0	106.0
Cc1oc(-c2ccc3c(c2)OCCO3)cc1C(=O)NC(C(=O)O)C(C)C (configuration not stated)
 : -18.3	5.4	99.0	102.0
CC1CC(C)CN(C(=O)c2ccc(CSc3nc4ccncc4n3Cc3ccc(F)cc3)cc2)C1 (configuration not stated)
 : -5.5	-27.4	107.0	107.0
CC1CCN(Cn2c(=S)n(CN3CCC(C)CC3)c3ccccc32)CC1
 : 7.5	-1.1	102.0	104.0
COC(=O)c1ccc(/C=N/NC(=O)CSc2nnc(C)n2-c2ccccc2)cc1
 : -0.7	-6.8	101.0	101.0
CCCN1C[C@H](CSC)C[C@@H]2c3cccc4[nH]cc(c34)C[C@H]21
 : -11.1&-16.1	-8.6&1.2	101.0&102.0	101.0&103.0
COc1ccc2c(c1)C=CC(C1C(=O)c3ccccc3C1=O)N2 (configuration not stated)
 : .	-9.9	105.0	106.0
CN1C(=O)/C(=C\c2ccc(-c3ccc(S(N)(=O)=O)cc3)o2)c2ccccc21
 : 19.1	-14.4	104.0	114.0
CC(Oc1ccccc1)C(=O)Nc1nc2ccccc2s1 (configuration not stated)
 : 7.3	-23.7	99.0	100.0

# Going on with the list.
# The line under a structure holds: MbtI inh	MenB inh	Polio RdRp inh	Polio RdRp inh intensity
O=C(NNC1=NCCC1)c1cccc(S(=O)(=O)N2CCOCC2)c1
 : 8.3	-1.2	102.0	98.0
C/C(=C\C(=O)Nc1ccc(Cl)cc1)N1CCN(c2ccccc2F)CC1
 : 0.6	11.5	105.0	104.0
O=S(=O)(CCO/N=C/c1cccs1)c1ccc(Cl)cc1
 : 8.3	11.4	98.0	97.0
Cc1ccc(-c2[nH]ncc2CN(C)Cc2ccccc2)cc1
 : .	4.4	100.0	102.0
N#Cc1ccc(C#CCOC(=O)Nc2ccc(Cl)cc2)cc1
 : -0.3	12.1	106.0	99.0
Cc1cc(C)c2nc(N3CCC(C(=O)N4CC(C)CC(C)C4)CC3)sc2c1 (configuration not stated)
 : -5.9	4.2	103.0	103.0
Cc1nccc(-c2nn(-c3ccc(F)cc3)ccc2=O)n1
 : -6.0	-3.2	108.0	113.0
COc1ccc(-c2nc3cc(N=Cc4cccc(OC)c4O)ccc3o2)cc1
 : .	-4.3	102.0	108.0
C=CCSc1nc(N)c(C(=O)Nc2ccccc2C)cc1C(N)=O
 : -294.9	5.3	99.0	100.0
Cc1ccc(CNC(=O)Nc2ccccc2)n1C
 : 0.1	6.9	104.0	105.0

# (further entries)
# The line under a structure holds: MbtI inh	MenB inh	Polio RdRp inh	Polio RdRp inh intensity
NC1=NC(c2ccccc2)C(C(=O)c2ccccc2)N1 (configuration not stated)
 : -14.9	12.5	107.0	115.0
Cc1cc(C)n2nc(C(=O)NC(C)(C)C)nc2n1
 : -28.1	-6.7	108.0	111.0
CCn1c(-c2cccs2)nn(CN2CCN(S(=O)(=O)c3cccs3)CC2)c1=S
 : 9.6	-28.2	105.0	101.0
CCC1(C)NC(=O)N(/N=C/C(C)=C/c2ccccc2)C1=O (configuration not stated)
 : 14.3	-25.6	107.0	99.0
COc1ccc(C(=O)NC(=Nc2c(C)cccc2C)SC)cc1
 : -8.8	-3.6	106.0	100.0
COC(=O)c1ccc(-n2nc(SC)sc2=S)cc1
 : 12.3	-2.9	105.0	108.0
O=C(OCC1CCCN2CCCCC12)c1ccc(F)c(F)c1 (configuration not stated)
 : .	-10.1	105.0	104.0
Cn1c(=NC(=O)c2nc3ccccc3s2)sc2cc(S(C)(=O)=O)ccc21
 : 4.0	-3.8	101.0	103.0
O=C1c2ccccc2-c2nc3ncnn3c(-c3ccccc3Cl)c21
 : 0.1	8.3	91.0	122.0
OCC1(CO)CSC(Nc2ccc(F)cc2)=N1
 : -8.3	-3.6	99.0	109.0

# The list goes on.
# The line under a structure holds: MbtI inh	MenB inh	Polio RdRp inh	Polio RdRp inh intensity
CCOC(CNc1nc(C)nc2sc3c(c12)CCCC3)OCC
 : -1.1	-14.4	98.0	100.0
COc1cccc(CN2CCN(C(=O)c3cccs3)CC2)c1
 : 11.1	12.6	102.0	98.0
Cc1ccc(CNC(=O)c2cc(=O)[nH]c3ccc(S(=O)(=O)N4CCOCC4)cc23)cc1
 : 4.2	-21.2	102.0	101.0
COc1ccccc1CNc1ccc(O)cc1
 : 65.0	-1.3	100.0	99.0
CC1CCC(NC(=O)C2CCCN2S(=O)(=O)c2ccc3c(c2)n(C)c(=O)c(=O)n3C)CC1 (configuration not stated)
 : 2.9	4.4	102.0	104.0
CC(=O)O[C@H]1C(=O)[C@@]2(C)C([C@H](OC(=O)c3ccccc3)[C@]3(O)C[C@H](O)C(C)=C1C3(C)C)[C@]1(OC(C)=O)CO[C@@H]1C[C@@H]2O (some centres not stated)
 : -7.6	-3.4	100.0	103.0
COc1ccc(-c2cc(C(=O)OCC(=O)N(C)C)c3ccccc3n2)cc1
 : -10.4	-0.8	100.0	101.0
O=C(CCCc1ccccc1)Nc1ccc(C(=O)O)cc1
 : -5.1	-48.5	99.0	100.0
O=S1(=O)CCn2c(ncnc2=Nc2cccc(C(F)(F)F)c2)N1
 : 26.8	6.8	99.0	104.0
O=C(c1ccncc1)N1C(=O)c2cccc3cccc1c23
 : 30.3	5.5	.	.

# Other records:
# The line under a structure holds: MbtI inh	MenB inh	Polio RdRp inh	Polio RdRp inh intensity
COC(=O)C1=C(NC(=O)c2ccc(C(C)(C)C)cc2)CCS1
 : 19.9	-14.8	100.0	103.0
CC(=O)N1CCc2cc(Br)cc(S(=O)(=O)CC(=O)N3CCc4ccccc43)c21
 : -3.0	-8.5	100.0	102.0
CCc1ccccc1NC(=O)N1CCN(c2nnc(C)c3c(C)n(-c4ccc(C)cc4)nc23)CC1
 : -8.2	2.5	102.0	100.0
CCOC(=O)c1cnc2c(c(C)nn2C)c1N1CCC(n2cccc2)CC1
 : 1.4	-18.9	100.0	100.0
O=C(O)CSc1nnc(-c2ccccc2)o1
 : -9.4	-32.8	100.0	98.0
Cc1ccc(C(=O)N2CCCN(C)CC2)o1
 : -15.8	-7.1	100.0	101.0
CCc1nnc2sc(-c3ccc(NC(=O)c4cccnc4)cc3)nn12
 : -6.3	-9.6	100.0	101.0
c1ccc(N2CCN(CN3CCN(c4ccccc4)CC3)CC2)cc1
 : -3.8	-1.7	104.0	109.0
COC(=O)C(=C/C=C/c1ccccc1)C(=O)OC
 : 13.9	-7.1	101.0	101.0
CN(c1ccccc1)C(c1ccc(F)cc1)c1nnnn1CC1CCCO1 (configuration not stated)
 : -4.9	-3.1	104.0	99.0

# Next section
# The line under a structure holds: MbtI inh	MenB inh	Polio RdRp inh	Polio RdRp inh intensity
CSc1nc(/N=C/N(C)C)nn1CCC#N
 : -6.2	-2.4	108.0	112.0
COC(=O)c1ccccc1NC(=O)c1cccc(C)c1
 : 30.4	-15.8	103.0	103.0
NNC(=O)c1n[nH]c2c1CCCC2
 : -12.8	-12.9	100.0	103.0
Cc1occc1C(=O)Oc1ccc2c(c1)OCO2
 : -2.8	3.4	103.0	106.0
O=S(=O)(NCc1ccccc1Cl)c1cccc(S(=O)(=O)N2CCOCC2)c1
 : -7.5	17.4	101.0	99.0
O=c1c2ccccc2c2ccccc2c(=O)n1Cc1ccccn1
 : -5.3	-25.4	101.0	108.0
COc1ccc(CN(C(=O)/C=C/C(=O)O)C2CC(=O)N(c3ccccc3)C2=O)cc1 (configuration not stated)
 : .	-5.8	104.0	99.0
C=CCn1c(C)cc(C(=O)CC#N)c1C
 : 5.8	.	100.0	101.0
CN(C)C(=O)CSc1nnnn1-c1ccccc1
 : -19.5	-5.9	100.0	104.0
O=C(NC1CCN(C(=O)C2CCC2)CC1)C1CCCCC1
 : -9.6	1.5	106.0	111.0

# More structures.
# The line under a structure holds: MbtI inh	MenB inh	Polio RdRp inh	Polio RdRp inh intensity
Cc1sc2nc(CSc3ncnc4sccc34)[nH]c(=O)c2c1C
 : 18.1	-6.2	51.0	246.0
COC(=O)C1=C(O)/C(=C\c2ccc(CNS(=O)(=O)c3ccccc3)o2)N=C1C
 : 7.2	-130.6	102.0	118.0
N#Cc1c(Nc2ccccc2)[nH]c(=O)[nH]c1=O
 : -5.0	-1.5	106.0	109.0
N#CC1(c2ccccc2)CCC(NCCCn2cnc3ccccc32)CC1 (configuration not stated)
 : 14.4	-13.5	93.0	100.0
CCOC(=O)c1c(C)nn(-c2ncccc2NC(=O)CCC(=O)O)c1C
 : -2.5	-6.6	106.0	113.0
CC12CCC3C(CCC4=CC(=O)CCC43C)C1CCC2=O (configuration not stated)
 : 2.4	-6.2	100.0	104.0
CC1CCCN(c2c3c(nc4ccccc24)CCCC3)C1 (configuration not stated)
 : 0.1	-5.4	102.0	98.0
NC(=O)c1sc2c(c1N)C(c1ccccc1)CC(=O)N2 (configuration not stated)
 : 24.4	-29.7	101.0	103.0
CC(C)Cn1c(=O)c2ccccc2n2c(CCC(=O)N3CCN(c4ccc(F)cc4)CC3)nnc12
 : 1.0	13.5	101.0	103.0
O=C(O)C1(Cc2nc3ccccc3s2)CCCC1
 : 2.8	14.1	100.0	101.0

# Next part.
# The line under a structure holds: MbtI inh	MenB inh	Polio RdRp inh	Polio RdRp inh intensity
Cc1ccc(C(=O)NC2CCCCNC2=O)cc1 (configuration not stated)
 : -3.3	4.6	111.0	115.0
Cc1cc(-n2c(C)cc(C(=O)COC(=O)c3sccc3C)c2C)no1
 : -4.4	-31.8	101.0	105.0
COc1cc2[nH]c(=O)n(/N=C/c3ccc(O)c(Br)c3)c(=O)c2cc1OC
 : -28.5	-2.1	105.0	100.0
C=CCN1Cc2c(sc3c2CCCC3)N(C(=O)c2ccccc2)C1
 : -7.1	-19.6	105.0	104.0
NC(CC(=O)O)c1ccccc1 (configuration not stated)
 : -17.9	-2.8	102.0	107.0
O=C(O)c1ccc2c(c1)no[n+]2[O-]
 : -7.6	-14.2	100.0	101.0
CCc1[o+]c(-c2ccccc2)cc2c1CCCC2
 : .	-2.3	99.0	106.0
CC1(C)OC(c2ccncc2)OC1(C)C
 : -6.6	10.4	101.0	108.0
COc1ccc(-c2nc3nnc(C)n3[nH]2)c(OC)c1
 : .	-3.2	105.0	107.0
O=C(C1CCN(C2=NS(=O)(=O)c3ccccc32)CC1)N1CCc2ccccc21
 : 1.5	16.2	97.0	107.0

# Additional entries follow.
# The line under a structure holds: MbtI inh	MenB inh	Polio RdRp inh	Polio RdRp inh intensity
CC(=O)N1CCN(c2nc(C3CC3)nc3sc4c(c23)CCCC4)CC1
 : 10.1	-47.1	102.0	101.0
O=C1CCCN2N=C(SCc3cccc(C(F)(F)F)c3)SC2=N1
 : -19.1	-10.0	101.0	103.0
COc1ccccc1NC(=O)c1ccc(C(=O)c2ccccc2)o1
 : -0.5	-11.2	100.0	104.0
CNC(=O)CSCc1cnn(-c2ccccc2)c1-n1cccc1
 : -1.1	-5.3	105.0	104.0

# Filtered by structure, those above containing a thiophene ring, fused or not
# The line under a structure holds: MbtI inh	MenB inh	Polio RdRp inh	Polio RdRp inh intensity
O=C(CSCC(=O)Nc1nc(-c2cccs2)cs1)Nc1nccs1
 : 0.8	-16.2	103.0	100.0
CS(=O)(=O)N(CC(=O)N1CCCCC1)c1sc2c(c1C#N)CCCC2
 : -0.5	18.9	102.0	101.0
O=S(=O)(CCO/N=C/c1cccs1)c1ccc(Cl)cc1
 : 8.3	11.4	98.0	97.0
CCn1c(-c2cccs2)nn(CN2CCN(S(=O)(=O)c3cccs3)CC2)c1=S
 : 9.6	-28.2	105.0	101.0
CCOC(CNc1nc(C)nc2sc3c(c12)CCCC3)OCC
 : -1.1	-14.4	98.0	100.0
COc1cccc(CN2CCN(C(=O)c3cccs3)CC2)c1
 : 11.1	12.6	102.0	98.0
Cc1sc2nc(CSc3ncnc4sccc34)[nH]c(=O)c2c1C
 : 18.1	-6.2	51.0	246.0
NC(=O)c1sc2c(c1N)C(c1ccccc1)CC(=O)N2 (configuration not stated)
 : 24.4	-29.7	101.0	103.0
Cc1cc(-n2c(C)cc(C(=O)COC(=O)c3sccc3C)c2C)no1
 : -4.4	-31.8	101.0	105.0
C=CCN1Cc2c(sc3c2CCCC3)N(C(=O)c2ccccc2)C1
 : -7.1	-19.6	105.0	104.0
CC(=O)N1CCN(c2nc(C3CC3)nc3sc4c(c23)CCCC4)CC1
 : 10.1	-47.1	102.0	101.0
